Assay outcomes: PubChem BioAssay, several laboratories
E coli growth = blocks Escherichia coli growth; OD600, 23 h; active compounds read low; OD600 absorbance (test concentration not listed); hit rate 0.21% among 330,000;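 active = OD600 absorbance below the run mean of sample wells minus 3.6 SD, in any replicate, cut at about 0.56 in these data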;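 also: stock transfer was 300 nL into about 60 µL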
Ecoli rRNA inh = inhibitors of bacterial rRNA selective over humanized ribosomes | E. coli WT GFP vs humanized-ribosome RFP mutants, fluorescence, 24 h; active compounds read low; DMSO median 0, no signal -100 | GFP signal change (wild-type ribosome), % (no concentration beside the values) | hit rate 1.6% among 350,000;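 active = significant combined selectivity score with lowered wild-type GFP, culture density cut under 30%, mutant RFP and density less affected; inactive = any of these conditions unmet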; also: one replicate is shown; some compounds called inactive have numbers as strong as hits
HNF4A DNA FP = change in binding of human HNF4 alpha to DNA. activity change, % at 10 µM. hit rate 0.3% among 360,000. P41235. HNF4a-FITC DNA binding, fluorescence polarization, 1 h; in the data active = activity change above about 30%, passing the limit was not always enough;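 also: controls were the assay level and a saturating level of protein; the project sought stronger binding though the title names inhibitors; some compounds called inactive have numbers as strong as hits; positive values seem to mean higher polarization but the record does not say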
ALR inh = inhibitors of human sulfhydryl oxidase ALR | P55789 | inhibition, % (no concentration beside the values) | AID 485317 | purified ALR, DTT oxidation, H2O2 HRP-luminol luminescence | hit rate 3.8% among 290,000;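 active = mean and each replicate at 75% or more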;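 also: stock transfer was 7.5 nL into about 7.5 µL; 0% = neutral wells and 100% = wells with inactivated enzyme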
Target sequence (P55789 whole entry, looked up): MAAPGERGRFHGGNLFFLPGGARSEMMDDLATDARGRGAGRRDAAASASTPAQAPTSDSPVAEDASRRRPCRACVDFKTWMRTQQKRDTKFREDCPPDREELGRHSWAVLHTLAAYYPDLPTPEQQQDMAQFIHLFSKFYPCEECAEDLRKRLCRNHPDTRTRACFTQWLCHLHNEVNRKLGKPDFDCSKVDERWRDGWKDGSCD
FGF22 binding = binders of recombinant human FGF22 by thermal shift | calls only at 9.99 µM | SYPRO orange fluorescence; percent of sucrose octasulfate shift, DMSO zero | hit rate 1.5% among 340,000 | AID 651658 | Q9HCT0;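 active = melting point raised past a set limit in the mean and every replicate; three in four hits are not shown here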
B2AR ag = human beta-2 adrenergic receptor agonism by FAP; hit rate 0.43% among 340,000; AID 504454; response, % (no concentration beside the values); P07550; Am2.2-beta2AR cells, FAP receptor internalization, flow cytometry; reference of the scale not given here;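 active = response above a set limit, near 3 SD of response in nonfluorescent compounds, cut at about 42% in these data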;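 also: stock transfer was 100 nL into about 11 µL; a reference agonist was the positive control; negative values mostly stem from fluorescent compounds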
Target sequence (P07550 whole entry, looked up): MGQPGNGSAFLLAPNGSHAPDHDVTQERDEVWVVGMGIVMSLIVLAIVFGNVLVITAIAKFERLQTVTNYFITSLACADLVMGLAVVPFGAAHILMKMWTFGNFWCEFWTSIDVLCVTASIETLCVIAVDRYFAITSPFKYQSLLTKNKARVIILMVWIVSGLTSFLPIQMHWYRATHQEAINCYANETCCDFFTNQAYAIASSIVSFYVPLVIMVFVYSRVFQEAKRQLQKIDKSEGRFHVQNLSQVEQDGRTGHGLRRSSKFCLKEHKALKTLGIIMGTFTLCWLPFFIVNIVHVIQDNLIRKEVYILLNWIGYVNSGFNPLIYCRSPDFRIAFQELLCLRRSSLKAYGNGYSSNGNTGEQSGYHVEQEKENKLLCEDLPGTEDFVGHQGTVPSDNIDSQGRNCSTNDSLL
UCH37 inh = human UCH37 deubiquitinating enzyme inhibition | Q9Y5K5 | purified proteasome/UCH37, Ub-AMC cleavage fluorescence | hit rate 0.33% among 330,000 | inhibition, % (concentration not given with the values);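 active = mean of two replicates above 20%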;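 also: 0% = compound-free wells with enzyme and 100% = wells lacking proteasome; stock transfer was 100 nL into about 20 µL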
Target sequence (Q9Y5K5 whole entry, looked up): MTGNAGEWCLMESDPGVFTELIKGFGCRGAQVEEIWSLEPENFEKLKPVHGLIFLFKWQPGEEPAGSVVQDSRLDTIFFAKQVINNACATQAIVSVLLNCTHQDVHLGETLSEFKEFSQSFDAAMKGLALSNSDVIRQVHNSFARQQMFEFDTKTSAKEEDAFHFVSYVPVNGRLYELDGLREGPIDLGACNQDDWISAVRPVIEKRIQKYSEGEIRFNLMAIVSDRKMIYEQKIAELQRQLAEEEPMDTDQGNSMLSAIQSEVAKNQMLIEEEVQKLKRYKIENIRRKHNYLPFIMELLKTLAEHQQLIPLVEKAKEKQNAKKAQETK
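system = Proteasome-associated human UCH37 deubiquitinase | amount = 0.15 nM proteasome as dispensed | medium = pH 7.4 Tris-HCl (50 mM) with ovalbumin, ATP-MgCl2, DTT | incubation = 30 min preincubation with enzyme, 25 min cleavage at room temperature | detection = AMC fluorescence 355/460 nm | read-out basis = percent inhibition | controls = no-proteasome and no-compound wells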
Ecoli rRNA inh OD600 = second read-out of Ecoli rRNA inh, no call of its own (marks repeat the call); OD600 change, %; measured here: OD600 growth;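 optical density of the mix in the first replicate; 0 = DMSO median and -100 = no signal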
Ecoli rRNA inh RFP = second read-out of Ecoli rRNA inh, no call of its own (marks repeat the call); RFP signal change, %; measured here: RFP humanized mutant strains;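 first replicate; 0 = DMSO median and -100 = no signal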
* hit, by the source's call; i = inactive; / = no result given; + = active, no number. The list is partial (hit frequency here may not be typical).

SMILES	E coli growth	Ecoli rRNA inh	Ecoli rRNA inh OD600	Ecoli rRNA inh RFP	HNF4A DNA FP	ALR inh	FGF22 binding	B2AR ag	UCH37 inh
c1ccc2c(c1)[nH]c1nc3nncn3nc12	0.61	3	-5	-6.2	1.7	9	i	1	6.9
O=C(Nc1ccc(N2CCOCC2)c(Cl)c1)c1cccnc1	0.8	/	/	/	-1.0	-23	/	4	1.8
O=C(CC(=O)c1ccccn1)c1ccccc1	0.65	-40	-44	4.1	3.0	/	i	-4	7.7
CCOC(=O)c1cnc(N)nc1-c1ccccc1	0.67	11	14	-2.3	2.4	/	i	-8	3.8
O=C(O)c1ccccc1C(=O)N1CCN(C(=O)c2ccccc2Cl)CC1	/	10	10	1.2	-2.7	-8	i	10	/
COC(=O)c1nn(-c2nc(-c3cccc(OC)c3)cc(C(F)(F)F)n2)cc1[N+](=O)[O-]	0.69	5	5	0.7	-7.5	/	i	33	3.3
CCc1c(O)c(/C(C)=N\O)c(=O)n(-c2ccccc2)c1-c1ccccc1	/	/	/	/	-3.2	6	/	5	/
COc1ccc(NC(=O)CCCN2C(=O)CN(C)C2=O)c(OC)c1	0.67	/	/	/	0.8	-17	+	4	-0.2
CCOc1ccccc1C1C(C#N)=C(SCC(=O)OC)NC(=O)C1C(=O)OC (stereo unspecified)	0.75	/	/	/	5.9	25	/	3	0.9
Cc1ccc(Nc2c(-c3ccc(C)o3)nc3ncccn23)cc1	0.66	-18	-20	-1.0	3.9	/	i	-2	2.1
O=C(O)CCNC(=O)/C(=C\c1ccco1)NC(=O)c1ccco1	0.69	16	13	2.7	-1.2	-2	i	-4	2.6
Cc1cc(NC(=O)c2cnn3c(C(F)F)cc(C4CC4)nc23)no1	0.77	/	/	/	2.0	3	/	-18	-1.0
CCCCOc1ccc(C2(C)CC(=O)NC2=O)cc1 (stereo unspecified)	0.75	/	/	/	0.4	2	/	-13	4.5
CCC(C)[C@H](NC(=O)OC(C)(C)C)C(=O)N/N=C/c1ccc2cc(OC)ccc2n1 (stereo partly specified)	/	/	/	/	-1.1	-19	/	-1	/
O=C(C1CCN(S(=O)(=O)c2cccc3cccnc23)CC1)N1CCn2c1nc1ccccc12	0.7	-14	-20	0.4	4.7	-125	i	-15	5.5
O=C(Nc1ccccc1F)c1ccc2snnc2c1	0.71	-2	14	3.4	-2.4	-4	i	18	-0.4
COc1ccc(S(=O)(=O)NC(CC(C)C)C(=O)NC(C)c2cccs2)cc1 (stereo unspecified)	0.64	6	5	-0.8	0.4	/	i	-4	1.0
Cc1cc2ccccn2c1C(=O)c1cccc(F)c1	0.69	-8	-19	-0.3	1.0	/	i	-10	6.0
OCCN(CCO)CC(O)COc1ccc2c(c1)OCO2 (stereo unspecified)	0.74	/	/	/	-0.1	-10	/	-2	4.1
Cc1ccc(-c2nnc(N3CCC(C)CC3)c3ccccc23)cc1C	0.64	-44	-70	-5.4	0.6	0	i	16	-1.4
O=C(Nc1ccc(Oc2ccccc2)cc1)c1cnc2n(c1=O)CCS2	0.73	0	3	-9.8	3.0	-2	i	-11	-33
COc1cc(CC(=O)OCC(=O)NC2CCCCC2)cc(OC)c1OC	0.7	-5	1	4.8	-4.4	-3	/	-1	4.7
COC(=O)c1ccccc1NC(=S)NC(=O)C1CC1	0.7	0	-5	-3.8	-3.2	14	i	-2	2.9
COc1ccc(NC(=O)CCc2c(C)nc3nc(C)nn3c2C)cc1	0.72	/	/	/	2.4	-3	/	-7	-0.6
O=C(O)C1CCC(N2C(=O)C3C4CCC(C4)C3C2=O)CC1 (stereo unspecified)	0.65	8	4	-5.7	-2.8	5	i	10	-2.0

Next part.
SMILES	E coli growth	Ecoli rRNA inh	Ecoli rRNA inh OD600	Ecoli rRNA inh RFP	HNF4A DNA FP	ALR inh	FGF22 binding	B2AR ag	UCH37 inh
O=C(c1c(F)cccc1F)N1CCCC(c2nc(-c3cccs3)no2)C1 (stereo unspecified)	0.69	-15	-20	-1.3	1.4	/	i	-6	-0.5
O=C(Nc1ccc(F)c(Cl)c1)C1CCN(S(=O)(=O)c2cccnc2)CC1	0.72	-15	-29	-4.2	2.8	/	i	14	5.1
CC(=O)Nc1ccc(S(=O)(=O)NCCc2cc3ccc(C)c(C)c3[nH]c2=O)cc1	0.69	1	5	2.2	-2.8	-4	i	-7	-5.0
CCn1cc(C(=O)OCC(=O)Nc2cccc(S(=O)(=O)N3CCOCC3)c2)c(=O)c2ccc(C)nc21	0.64	/	/	/	1.4	-3	/	7	3.0
Cn1c(CCC(=O)Nc2ccc(S(C)(=O)=O)cc2)nc2cc(S(=O)(=O)N3CCOCC3)ccc21	0.71	12	7	1.4	-0.1	/	i	2	1.1
C=CCn1c(=N)n(CC(O)COc2ccc(OC)cc2)c2ccccc21 (stereo unspecified)	0.73	0	-1	0.8	2.8	/	i	11	6.7
CCc1cccc(NC(=O)c2cnn(-c3ccccc3)c2C)c1	0.69	-25	-45	2.7	-1.6	-11	i	-1	3.6
O=S(=O)(Cc1noc(-c2ccccc2Cl)n1)c1ccccn1	0.65	2	7	5.6	-2.0	1	i	12	4.3
CN1CCCN(S(=O)(=O)c2ccccc2)c2nc3ccccc3nc21	0.6	-15	-25	-2.6	3.3	/	i	6	-25
CN(C)c1nc(C(=O)NN)nc(N(C)C)n1	0.64	10	5	-4.3	0.0	42	i	-7	-0.8
Cc1ccc(C(=O)NCCNC(=O)COc2ccc(C)c(C)c2)cn1	0.63	5	3	-3.6	3.1	0	i	0	0.6
CC(=O)N(CC#CCN(C(C)=O)c1ccccc1)c1ccccc1	/	-7	0	2.4	-0.8	/	i	/	/
CC(=O)Nc1cccc(-c2cc(NC=O)c3ncc(-c4ccc(F)c(Cl)c4)n3c2)c1	/	-7	-6	3.7	8.4	/	i	/	/
CCOc1cc(C2NC(=S)NC(C)=C2C(=O)Nc2ccc(OC)cc2)ccc1O (stereo unspecified)	0.69	/	/	/	1.9	60	/	3	-22
NC(=O)c1nn(-c2ccccc2)nc1NC(=O)CSc1nnnn1-c1ccc(Cl)cc1	0.69	/	/	/	-0.2	1	/	-5	-3.3
CCC(CO)Oc1cc(NC(=O)c2ccc(Cl)cc2)c2ncn(C(C)C)c2c1 (stereo unspecified)	0.7	-8	12	-2.1	3.2	-2	i	1	-6.3
COc1ccc([N+](=O)[O-])cc1NC(=O)CSCc1ccc(Br)cc1	0.65	-16	-32	-5.4	-1.0	-3	i	2	0.1
O=C(Nc1c(C(=O)Nc2ccc3c(c2)OCCO3)cnn1-c1ccccc1Cl)c1ccco1	0.73	/	/	/	-3.1	22	/	-4	1.6
COc1cccc(Nc2ncnc3c2cnn3-c2cccc(C)c2)c1	0.69	/	/	/	0.7	-6	/	2	-8.7
CCOC(=O)N1CCC(NC(=O)c2ccc(CO)c(C(=O)NC3CCN(C(=O)OCC)CC3)c2)CC1	0.71	-1	4	-0.1	0.1	-11	i	-107	1.1
CC(C)(C)c1nc(SCC(=O)NC2CCCC2)c2ccccc2n1	0.66	17	12	7.7	4.0	3	i	-13	5.1
O=S(=O)(c1cccc2nonc12)N1CCN(c2ccc(F)cc2)CC1	0.7	21	21	2.6	-1.2	-1	i	1	2.4
COc1ccc(Cn2c(-c3ccccc3)nc3c(c(=O)c4ccccc4n3C)c2=O)cc1	0.72	/	/	/	1.4	-24	/	-3	2.6
Cc1ccc(C)c(Nc2ccc(C(=O)NCCc3ccccc3)cn2)c1	0.68	/	/	/	2.0	9	i	-12	-3.3
COc1ccc(OC)c(-c2csc(CCn3nc(C)cc3C)n2)c1	0.67	-19	-19	-3.8	0.8	/	i	1	6.4

Next part
SMILES	E coli growth	Ecoli rRNA inh	Ecoli rRNA inh OD600	Ecoli rRNA inh RFP	HNF4A DNA FP	ALR inh	FGF22 binding	B2AR ag	UCH37 inh
CC1CC(C)CN(S(=O)(=O)c2ccc(Cl)cc2)C1 (stereo unspecified)	0.66	6	6	-3.2	-2.4	-5	i	4	3.3
CC(=O)c1c(C)nc(-c2ccccc2)nc1NC(=O)Cc1ccccc1	0.72	7	12	0.4	0.9	0	i	16	4.7
CCCN(CC(=O)Nc1ccccc1C)C(=O)C1CCCN(C(=O)c2ccc(Cl)cc2)C1 (stereo unspecified)	0.66	2	9	1.0	-0.4	/	i	4	5.5
COCCn1c(SCC(=O)Nc2nc3ccccc3s2)nnc1-c1ccoc1C	0.72	/	/	/	1.0	-4	/	-7	5.2
COC(=O)c1[nH]c2ccc(C)cc2c1NC(=O)c1ccccc1[N+](=O)[O-]	0.71	/	/	/	10	-6	/	3	2.0
CCOc1ccc(C(C(=O)NC2CCCC2)N(C(=O)c2snc(C(N)=O)c2N)c2cccc(O)c2)cc1 (stereo unspecified)	0.63	-1	6	-0.4	1.4	/	i	11	-4.5
CC1(c2nnnn2Cc2ccccc2)CCC(=O)N1CCc1c[nH]c2ccccc12 (stereo unspecified)	/	2	-7	-1.9	-0.2	/	i	/	/
O=C(N/N=C/c1ccc2c(c1)OCO2)c1cc(-c2ccncc2)nc2ccccc12	/	/	/	/	-1.4	1	/	16	/
CN(CC(=O)Nc1cc(Cl)ccc1-n1cncn1)Cc1ccccc1N1CCOCC1	/	-4	-19	9.4	-1.1	/	i	/	/
Nc1nc(-c2ccccc2)c(CCCOc2ccc(NC(=O)CBr)cc2)c(=O)[nH]1	/	/	/	/	2.1	/	i	-10	/
Cc1ccccc1NC(=O)CCN1CCN(Cc2ccccc2)CC1	0.69	/	/	/	1.1	-1	/	-1	2.9
O=S1(=O)c2c(Oc3cccc4ccccc34)cccc2OC(COCc2ccccc2)CN1C1CCCC1 (stereo unspecified)	/	13	10	-1.7	1.1	/	i	4	/
Cc1ccccc1NC(=O)C1Cc2ccccc2CN1C(=O)OCc1ccccc1 (stereo unspecified)	0.68	-31	-51	13	2.1	/	i	-3	3.2
CCOC(=O)c1sc(NNC(=O)c2ccc(C)cc2)nc1C	0.69	/	/	/	-2.3	/	i	-13	5.8
CC(=O)c1ccc(NC(=O)CN2C(=O)/C(=C/C(C)=C/c3ccccc3)SC2=S)cc1	0.75	0	9	21	6.8	/	i	-3	3.0
COc1ccc(C(=O)Nc2ccc(C)cc2C(=O)c2ccccc2)c(OC)c1	0.72	-3	1	-0.1	-2.3	97*	i	-18	2.9
Cc1c(N2C(=O)c3cccc4cccc(c34)C2=O)c(=O)n(-c2ccccc2)n1C	0.73	/	/	/	-2.7	-16	/	1	4.6
CCCn1c(C2CCCN2c2nc(-c3ccc(C)cc3)cs2)nc2cc(Cl)c(N3CCCCC3)cc21 (stereo unspecified)	0.7	5	8	8.7	3.7	-3	i	-6	3.9

Exported as labelled records: entries from further up
CCCN(CC(=O)Nc1ccccc1C)C(=O)C1CCCN(C(=O)c2ccc(Cl)cc2)C1 (stereo unspecified)
  E coli growth: 0.66	Ecoli rRNA inh: 2	Ecoli rRNA inh OD600: 9	Ecoli rRNA inh RFP: 1.0	HNF4A DNA FP: -0.4	ALR inh: /	FGF22 binding: i	B2AR ag: 4	UCH37 inh: 5.5
CC(=O)c1c(C)nc(-c2ccccc2)nc1NC(=O)Cc1ccccc1
  E coli growth: 0.72	Ecoli rRNA inh: 7	Ecoli rRNA inh OD600: 12	Ecoli rRNA inh RFP: 0.4	HNF4A DNA FP: 0.9	ALR inh: 0	FGF22 binding: i	B2AR ag: 16	UCH37 inh: 4.7
Cc1ccccc1NC(=O)C1Cc2ccccc2CN1C(=O)OCc1ccccc1 (stereo unspecified)
  E coli growth: 0.68	Ecoli rRNA inh: -31	Ecoli rRNA inh OD600: -51	Ecoli rRNA inh RFP: 13	HNF4A DNA FP: 2.1	ALR inh: /	FGF22 binding: i	B2AR ag: -3	UCH37 inh: 3.2
